Beta2AR agonist: beta2AR agonists driving receptor internalization, primary screen, cell-based, FAP fluorogen, flow cytometry. AID 504454, 2011. Beta-2 adrenergic receptor (Homo sapiens), P07550. response, % (concentration not given with the values). Am2.2-beta2AR cells; reference of the scale not given here. 340,000 tested, 0.43% active;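 active = response above a set limit, near 3 SD of response in nonfluorescent compounds, cut at about 42% in these data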;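 note: stock transfer was 100 nL into about 11 µL; a reference agonist was the positive control; negative values mostly stem from fluorescent compounds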
HNF4A DNA FP: change in binding of human HNF4A to DNA, primary screen, biochemical, fluorescence polarization, FITC-DNA. Hepatocyte nuclear factor 4-alpha (Homo sapiens), P41235. 1 h. activity change, % at 10 µM. 360,000 tested, 0.3% active. AID 1224865, 2016; in the data active = activity change above about 30%, passing the limit was not always enough;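 note: controls were the assay level and a saturating level of protein; the project sought stronger binding though the title names inhibitors; some compounds called inactive have numbers as strong as hits; positive values seem to mean higher polarization but the record does not say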
Target sequence (P41235 whole entry, looked up): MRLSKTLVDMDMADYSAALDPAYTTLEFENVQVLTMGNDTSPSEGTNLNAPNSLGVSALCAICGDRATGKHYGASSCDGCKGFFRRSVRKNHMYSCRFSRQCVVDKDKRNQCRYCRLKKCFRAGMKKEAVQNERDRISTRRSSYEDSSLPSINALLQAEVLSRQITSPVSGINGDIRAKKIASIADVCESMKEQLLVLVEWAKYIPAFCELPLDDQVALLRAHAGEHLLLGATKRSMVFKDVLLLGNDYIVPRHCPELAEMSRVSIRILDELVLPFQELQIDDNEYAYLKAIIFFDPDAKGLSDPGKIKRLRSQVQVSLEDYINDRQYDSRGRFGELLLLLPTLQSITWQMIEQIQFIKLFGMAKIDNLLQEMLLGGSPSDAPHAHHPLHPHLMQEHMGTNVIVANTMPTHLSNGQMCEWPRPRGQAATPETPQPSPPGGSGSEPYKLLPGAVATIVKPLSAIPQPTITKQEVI
FGF22 binding: binders of human FGF22 protein, primary screen, FGF22 synaptogenesis inhibitor project, biophysical, thermal shift, single point; Fibroblast growth factor 22 (Homo sapiens), Q9HCT0; recombinant FGF22 thermal shift, SYPRO orange fluorescence; percent of sucrose octasulfate shift, DMSO zero; calls only at 9.99 µM; 340,000 tested, 1.5% active;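 active = melting point raised past a set limit in the mean and every replicate; inconclusive = no clear call; three in four hits are not shown here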
Target sequence (Q9HCT0 whole entry, looked up): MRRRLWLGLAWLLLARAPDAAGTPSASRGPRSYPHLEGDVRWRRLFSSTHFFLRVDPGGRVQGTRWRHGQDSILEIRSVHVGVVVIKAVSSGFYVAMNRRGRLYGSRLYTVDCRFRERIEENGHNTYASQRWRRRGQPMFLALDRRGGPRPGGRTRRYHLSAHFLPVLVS
rRNA inh HTS: reduced GFP signal of wild-type E. coli, primary screen, bacterial rRNA inhibitor project, GFP/RFP fluorescence, OD600, single point; E. coli WT GFP vs humanized-ribosome RFP mutants, 24 h; hits give low values; DMSO median 0, no signal -100; GFP signal change (wild-type ribosome), % (no concentration beside the values); 350,000 tested, 1.6% active; AID 720706, 2013;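 active = significant combined selectivity score with lowered wild-type GFP, culture density cut under 30%, mutant RFP and density less affected; inactive = any of these conditions unmet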; note: one replicate is shown; some compounds called inactive have numbers as strong as hits
UCH37 DUB inh: inhibitors of human UCH37 deubiquitinase, primary screen, biochemical, Ub-AMC cleavage, fluorescence. Ubiquitin carboxyl-terminal hydrolase isozyme L5 (Homo sapiens), Q9Y5K5. purified proteasome/UCH37. inhibition, % (no concentration beside the values). 330,000 tested, 0.33% active;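 active = mean of two replicates above 20%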;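 note: 0% = compound-free wells with enzyme and 100% = wells lacking proteasome; stock transfer was 100 nL into about 20 µL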
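Reagent: Ub-AMC substrate; assay system: Proteasome-associated human UCH37 deubiquitinase; controls: no-proteasome and no-compound wells; read-out: % inhibition of Ub-AMC cleavage fluorescence; timing: 30 min preincubation with enzyme, 25 min cleavage at room temperature; signal: AMC fluorescence from Ub-AMC cleavage, excitation 355 nm, emission 460 nm; buffer or medium: Tris-HCl pH 7.4 plus ovalbumin, ATP-MgCl2, DTT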
ALR inh: inhibitors of human ALR sulfhydryl oxidase, primary screen, biochemical, H2O2 detection, HRP-luminol luminescence, single point. inhibition, % (no concentration beside the values). 290,000 tested, 3.8% active. purified ALR, DTT oxidation. AID 485317, 2010;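 active = mean and each replicate at 75% or more; inconclusive = only one of the two met; inactive = neither met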;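 note: stock transfer was 7.5 nL into about 7.5 µL; 0% = neutral wells and 100% = wells with inactivated enzyme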
Target sequence (P55789 whole entry, looked up): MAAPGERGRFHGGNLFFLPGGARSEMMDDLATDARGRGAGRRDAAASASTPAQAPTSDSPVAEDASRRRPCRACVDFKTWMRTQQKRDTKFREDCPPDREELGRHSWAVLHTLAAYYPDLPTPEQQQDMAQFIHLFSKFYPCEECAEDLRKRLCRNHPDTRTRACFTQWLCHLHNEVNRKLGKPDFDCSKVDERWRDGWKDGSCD
E coli growth: E. coli growth inhibition, primary screen, OD600 | 330,000 tested, 0.21% active | AID 1053175, 2014 | OD600 absorbance (test concentration not listed) | Escherichia coli growth, 23 h; hits give low values;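 active = OD600 absorbance below the run mean of sample wells minus 3.6 SD, in any replicate, cut at about 0.56 in these data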;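 note: stock transfer was 300 nL into about 60 µL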
rRNA inh HTS OD600: also measured in rRNA inh HTS; calls as there; OD600 change, %; measured here: OD600 growth;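 optical density of the mix in the first replicate; 0 = DMSO median and -100 = no signal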
rRNA inh HTS RFP: further read-out of rRNA inh HTS, marked with its call; RFP signal change, %; measured here: RFP humanized mutant strains;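 first replicate; 0 = DMSO median and -100 = no signal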
An asterisk follows results filed as active; i = inactive; ? = inconclusive; . = no result given; & = joins results of further samples. The list is partial; rates above refer to the full screens.

Results follow in this order: Beta2AR agonist | HNF4A DNA FP | FGF22 binding | rRNA inh HTS | rRNA inh HTS OD600 | rRNA inh HTS RFP | UCH37 DUB inh | ALR inh | E coli growth
> Cc1cc(C)cc(NC(N)=S)c1
  5 | -0.4 | i | 7 | 6 | -2.2 | 1.8 | 0 | 0.7
> COc1cccc(-c2nn(-c3ccccc3)cc2CN(C)C(C)c2ccon2)c1 (configuration not stated)
  -21 | -0.4 | i | -17 | -6 | -3.6 | 4.2 | -5 | 0.69
> C/C(=N\N1CCN(c2ccccc2)CC1)c1ccco1
  -1 | 0.8 | . | . | . | . | . | ? | .
> CN(C)CCNC(=O)C1CC(=O)N(c2ccc(F)c(Cl)c2)C1 (configuration not stated)
  2 | -1.8 | i | 11 | 8 | -5.8 | 3.6 | -6 | 0.69
> CCOC(=O)c1csc(COc2ccc(OC)cc2)n1
  -3 | 0.6 | i | -14 | -16 | -1.5 | -0.4 | -10 | 0.68
> CCOC(=O)c1c(NC(=O)C(C)N2CCN(S(=O)(=O)c3cccs3)CC2)sc2c1CCC(C)C2 (configuration not stated)
  4 | -1.9 | . | . | . | . | . | -19 | .
> COC(=O)c1ccccc1NC(=O)c1onc(C)c1Cl
  -3 | -1.8 | i | 12 | 10 | -0.1 | -64 | . | 0.72
> CCOC(=O)CSc1nsc(SCC(=O)OCC)c1C#N
  18 | -1.9 | . | . | . | . | 3.5 | -10 | 0.72
> Cc1ccc(CCNC(=O)c2ccc3nc4ccc(Cl)cc4c(=O)n3c2)cc1
  -7 | 3.0 | i | 10 | 5 | -5.6 | -219 | 4 | 0.7
> C=CCN1C(=O)/C(=C2/Sc3ccccc3N2C)SC1=Nc1ccccc1C
  -2 | 3.9 | . | . | . | . | 4.9 | -2 | 0.72
> CCCNC(=O)c1onc(CSc2ccc(Cl)cc2)c1C(=O)NC(C)C
  -1 | -1.4 | i | 8 | -3 | 2.8 | 3.9 | -5 | 0.67
> CCSc1nnc(NC(=O)C(CC)Oc2ccccc2)s1 (configuration not stated)
  4 | 1.9 | i | -30 | -25 | -13 | 6.8 | 9 | 0.71
> Cc1cccc(N2C(=NC(=O)c3ccccc3)SC3CS(=O)(=O)CC32)c1 (configuration not stated)
  -11 | -0.2 | i | 11 | 18 | 0.9 | . | -10 | .
> CCCN(C(=O)Cn1nc(C)c([N+](=O)[O-])c1C)c1c(N)n(Cc2ccccc2)c(=O)[nH]c1=O
  3 | 8.3 | i | 6 | -2 | 1.7 | 4.9 | -1 | 0.68
> Cc1ccc(S(=O)(=O)N2C[C@H]3C(=O)C[C@@H](c4ccccc4)N(S(=O)(=O)c4ccc(C)cc4)[C@H]3C[C@H]2c2ccccc2)cc1
  . | -1.5 | i | 22 | 17 | 2.2 | . | . | .
> CCc1nnc(NC(=O)CSc2nnnn2C)s1
  2 | -2.9 | . | . | . | . | 3.6 | 99* | 0.66
> CCCC(=O)C1=C(O)C(C(=O)OC)C(C)(C)CC1=Nc1ccc(Br)cc1 (configuration not stated)
  -7 | 0.4 | i | -25 | -34 | -8.6 | 1.8 | 1 | 0.68
> Clc1ccc(OCCCc2nc(-c3cccnc3)no2)c(Cl)c1
  -2 | 2.7 | . | . | . | . | -1.4 | -6 | 0.72
> CCCc1cc(=O)[nH]c(SCC(=O)Nc2ccc(S(=O)(=O)N3CCCC3)cc2)n1
  -3 | -1.8 | . | -10 | -16 | -2.8 | 1.0 | -2 | 0.72
> C(=C\c1ccccc1)/CN1CCN(C(c2nnnn2Cc2ccccc2)C2CC2)CC1 (configuration not stated)
  . | 9.0 | i | -40 | -73 | -2.9 | . | . | .
> COc1ccc2oc(C(=O)OCC(=O)N(C)C3CCCCC3)c(C)c2c1
  -10 | 0.3 | i | -7 | -4 | -1.5 | . | 2 | .
> O=C(/C=C/c1ccco1)Nc1ccc(-c2nc3ccccc3[nH]2)cc1
  -1 | 66* | . | . | . | . | -12 | -9 | 0.69
> CC(=O)Nc1ccc2c(c1)N(S(=O)(=O)c1cccs1)CCC2
  11 | -2.1 | i | 2 | -16 | 4.5 | 1.7 | . | 0.68
> CC(C(=O)Nc1ncc([N+](=O)[O-])s1)N1C(=O)c2ccccc2S1(=O)=O (configuration not stated)
  -3 | -3.8 | i | 8 | 6 | 4.5 | -2.1 | -1 | 0.67
> CC(C)(C)NC(=O)C(c1ccco1)N(C(=O)Cn1nnc(-c2ccc(F)cc2)n1)c1cccc(F)c1 (configuration not stated)
  0 | -3.5 | i | -7 | -10 | 2.3 | 2.5 | -3 | 0.74
> COc1ccc(Br)cc1-c1noc(-c2ccccc2)n1
  -3 | -3.7 | . | . | . | . | . | -7 | 0.72
> CCOC(=O)c1c(C)c(C(=O)NCCN2CCOCC2)c(C)n1CC
  -1 | -1.5 | . | . | . | . | 0.9 | -2 | 0.65
> Cc1cccc(NC(=O)CSc2nnnn2C2CCCC2)c1
  3 | 2.4 | i | 0 | 3 | -1.4 | 0.1 | . | 0.67
> Cc1c(CCOC(=O)CC23CC4CC(CC(C)(C4)C2)C3)sc[n+]1Cc1ccc([N+](=O)[O-])cc1
  4&2 | -2.3&1.3 | i | -61 | -77 | -18 | 5.3&3.3 | -6 | 0.62&0.68
> O=C(CC(=O)NC1CCCCC1)N/N=C/c1ccc(Cl)cc1
  1 | -0.4 | . | . | . | . | . | -3 | .

In the list so far, three have an NH in an aromatic ring:
Results follow in this order: Beta2AR agonist | HNF4A DNA FP | FGF22 binding | rRNA inh HTS | rRNA inh HTS OD600 | rRNA inh HTS RFP | UCH37 DUB inh | ALR inh | E coli growth
> CCCN(C(=O)Cn1nc(C)c([N+](=O)[O-])c1C)c1c(N)n(Cc2ccccc2)c(=O)[nH]c1=O
  3 | 8.3 | i | 6 | -2 | 1.7 | 4.9 | -1 | 0.68
> CCCc1cc(=O)[nH]c(SCC(=O)Nc2ccc(S(=O)(=O)N3CCCC3)cc2)n1
  -3 | -1.8 | . | -10 | -16 | -2.8 | 1.0 | -2 | 0.72
> O=C(/C=C/c1ccco1)Nc1ccc(-c2nc3ccccc3[nH]2)cc1
  -1 | 66* | . | . | . | . | -12 | -9 | 0.69

Other results follow:
Results follow in this order: Beta2AR agonist | HNF4A DNA FP | FGF22 binding | rRNA inh HTS | rRNA inh HTS OD600 | rRNA inh HTS RFP | UCH37 DUB inh | ALR inh | E coli growth
> CCn1c(=O)c(C(=O)Nc2ccccc2)c(O)c2ccccc21
  10 | -0.6 | i | 12 | 11 | -0.4 | -79 | -14 | 0.65
> Cc1ccnc(NC(=O)CN2C(=O)c3ccccc3S2(=O)=O)c1
  -2 | -5.6 | i | 8 | 7 | -1.5 | 3.0 | -1 | 0.64
> Cc1ccc(S(=O)(=O)N2CCN(C(=O)CN3C(=O)NC(C)(c4ccc(Cl)cc4)C3=O)CC2)c(C)c1 (configuration not stated)
  1 | 1.5 | i | -10 | -28 | 3.2 | . | -9 | .
> CC1CCC(NC(=O)c2cccc(S(=O)(=O)N3CCN(C)CC3)c2)CC1 (configuration not stated)
  -1 | -9.6 | i | 8 | 15 | -2.5 | 1.1 | -1 | 0.71
> O=C(CCSc1ccccc1)N1CCN(C(=O)c2ccco2)CC1
  -2 | -2.8 | i | 9 | 8 | -2.2 | -1.4 | -5 | 0.7
> CCC(=O)Nc1ccccc1-c1nc2ccccc2[nH]c1=O
  -4 | -1.1 | i | 11 | 2 | -0.5 | 3.6 | -10 | 0.67
> Oc1ccc(NCc2cccc(OCc3ccccc3)c2)cc1
  0 | 0.5 | i | 11 | 7 | 66 | -2.2 | -2 | 0.64
> CC(C(=O)N1c2ccccc2Sc2ccccc21)n1nnc(-c2cccs2)n1 (configuration not stated)
  4 | -1.6 | . | . | . | . | -0.5 | -10 | 0.77
> COc1ccc(C2=NN(C(=O)c3ccccc3)C(c3ccc(OC)c(OC)c3)C2)c(O)c1 (configuration not stated)
  -3 | 1.0 | i | -5 | -4 | 2.8 | -0.5 | . | 0.66
> C#CCN(C[C@H]1[C@H](OC(=O)NCc2ccco2)[C@H](OC(=O)NCc2ccco2)C[C@@H](C(=O)OC)[C@H]1C(=O)OC)S(=O)(=O)c1ccc(C)cc1
  . | -2.2 | i | 9 | 1 | -2.0 | . | . | .
> O=C(COc1ccc2c3c(c(=O)oc2c1)CCCC3)NCc1ccccn1
  -2 | 4.0 | i | -3 | -6 | -1.9 | -101 | 1 | 0.68
> Cc1c(Cl)cccc1N(CC(=O)NC(C)c1ccccc1)S(C)(=O)=O (configuration not stated)
  -8 | 1.3 | i | 7 | 2 | -0.2 | -0.1 | -15 | 0.62
> CCN1CC(CN(C)Cc2nc(-c3ccc(OC)c4ccccc34)oc2C)CC1=O (configuration not stated)
  -3 | -1.6 | i | 2 | 6 | 2.4 | -132 | -23 | 0.7
> COC(=O)C(=O)C1CCc2c(Cl)cc(OC)c(OC)c2C1=O (configuration not stated)
  -4 | -0.5 | i | . | . | . | . | . | .
> CNC(=O)COC(=O)c1ccc(NC(=O)CC#N)cc1
  1 | 1.6 | . | . | . | . | -1.0 | 98* | 0.7
> COc1ccccc1OCc1nnc(SCC(=O)Nc2nnc(C3CC3)s2)n1C
  8 | -2.6 | i | 7 | 14 | -1.1 | 2.9 | -24 | 0.62
> Nc1ccc(C(=O)N/N=C/c2sc(N3CCOCC3)nc2-c2ccccc2)cc1
  -1 | -1.4 | i | -8 | -9 | -9.4 | . | ? | .
> N/C(=N\OC(=O)COc1ccc(Cl)cc1Cl)c1cccnc1
  -4 | -5.2 | . | . | . | . | 1.9 | -2 | 0.67
> CCc1nnc(NC(=O)CSc2nccn2-c2cccc(C)c2)s1
  1 | -5.0 | i | -6 | -7 | 1.6 | 0.6 | 11 | 0.66
> NS(=O)(=O)c1cc2c(cc1Cl)NCNS2(=O)=O
  1 | -1.1 | i | 4 | 9 | 9.5 | -0.6 | . | 0.71
> OCCCNc1ncnc2sc3c(c12)CCN(Cc1ccccc1)C3
  9 | 25 | i | 10 | 11 | -0.8 | -234 | -15 | 0.68
> O=C(C1CCC(=O)N(C2CCCC2)C1)N1CCN(c2ccccc2Cl)CC1 (configuration not stated)
  7 | 1.8 | i | -2 | -5 | 1.3 | -0.4 | -2 | 0.64
> CCC1CCCCN1C(=S)Nc1cccc(S(=O)(=O)N(C)C)c1 (configuration not stated)
  3 | -1.2 | i | -2 | -2 | -0.4 | 2.3 | 1 | 0.66
> O=C(NC1CCCCCC1)c1c(O)nc2sccn2c1=O
  -3 | 2.1 | i | -47 | -71 | -11 | -1.8 | . | 0.7
> Nc1cc(C(=O)O)ccc1Sc1ccccc1C(=O)O
  4 | -1.0 | i | 20 | 13 | 0.7 | -0.5 | 3 | 0.66
> O=c1c2ccccc2nnn1-c1ccccc1
  -4 | -6.4 | i | 4 | 10 | -1.1 | . | . | .

Compound activity deposited in PubChem by several laboratories.
